MLL AF4-AF9 inh = blocks AF4 peptide binding to human AF9 | actives 0.47% (n = 350,000) | inhibition, % at 10 µM | P42568 | AlphaScreen, biotin-AF4 peptide binding to FLAG-AF9;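 active means every replicate reaching a set inhibition limit, whatever the replicate mean, cut at about 25% in these data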;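 further: 0% = plate neutral control median and 100% = total signal loss; the record names both 10 and 1 µM as test concentration; the first replicate is given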
Target sequence (P42568 whole entry, looked up): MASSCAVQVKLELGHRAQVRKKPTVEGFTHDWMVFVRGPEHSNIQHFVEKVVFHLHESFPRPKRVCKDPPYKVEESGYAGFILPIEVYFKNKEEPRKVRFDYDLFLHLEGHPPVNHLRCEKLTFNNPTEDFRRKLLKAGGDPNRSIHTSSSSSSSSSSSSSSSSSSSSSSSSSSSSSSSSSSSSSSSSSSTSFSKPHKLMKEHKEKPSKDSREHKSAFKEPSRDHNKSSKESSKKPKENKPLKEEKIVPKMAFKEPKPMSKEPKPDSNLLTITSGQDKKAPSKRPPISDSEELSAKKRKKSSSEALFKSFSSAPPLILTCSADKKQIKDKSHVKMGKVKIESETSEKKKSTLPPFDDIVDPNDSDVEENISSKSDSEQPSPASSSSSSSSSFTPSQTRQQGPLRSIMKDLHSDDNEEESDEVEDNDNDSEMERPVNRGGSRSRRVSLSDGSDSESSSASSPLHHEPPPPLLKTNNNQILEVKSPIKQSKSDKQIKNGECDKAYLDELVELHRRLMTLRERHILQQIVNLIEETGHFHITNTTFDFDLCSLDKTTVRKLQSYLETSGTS
FGF22 binding = FGF22 (human) thermal shift binding; actives 1.5% (n = 340,000); calls only at 9.99 µM; recombinant FGF22 thermal shift, SYPRO orange fluorescence; percent of sucrose octasulfate shift, DMSO zero;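 active means melting point raised past a set limit in the mean and every replicate; three in four hits are not shown here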
Target sequence (Q9HCT0 whole entry, looked up): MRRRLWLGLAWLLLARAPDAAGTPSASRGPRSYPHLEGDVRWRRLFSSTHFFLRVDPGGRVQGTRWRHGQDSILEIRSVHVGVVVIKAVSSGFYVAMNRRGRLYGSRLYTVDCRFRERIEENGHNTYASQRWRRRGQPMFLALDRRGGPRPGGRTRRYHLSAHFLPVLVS
An asterisk follows results filed as active; i = inactive; + = active, no number.

structure | MLL AF4-AF9 inh | FGF22 binding
CCCC#Cc1ccc2c(c1)O[C@H](CN(C)C(C)=O)[C@H](C)CN([C@H](C)CO)S2(=O)=O | -1.2 | i
C[C@H]1CCCCO[C@H](CN(C)S(=O)(=O)c2cccs2)[C@@H](C)CN([C@@H](C)CO)C(=O)c2cc(NS(=O)(=O)c3ccc(Cl)cc3)ccc2O1 | -0.7 | i
COc1ccccc1S(=O)(=O)N(C)C[C@@H]1OCc2ccccc2-c2c(n(C)c3ccccc23)C(=O)N([C@H](C)CO)C[C@@H]1C | 4.9 | i
COC(=O)C[C@@H]1CC[C@H]2[C@@H](COc3ccc(NC(=O)NC(C)C)cc3C(=O)N2C)O1 | -0.7 | +
CN(C)C(=O)c1cccc(-c2ccc3c(c2)[C@@H]2[C@@H](CCN2C(=O)c2ccncc2)[C@H](CO)N3C)c1 | -2.8 | i
C[C@H](CO)N1C[C@H](C)[C@@H](CN(C)C(=O)Cc2ccccn2)Oc2ncc(C#CC3CCCC3)cc2C1=O | 0.3 | i
C[C@@H]1CN([C@H](C)CO)C(=O)c2cccc(NC(=O)C3CCOCC3)c2O[C@H]1CN(C)Cc1ccc(C(=O)Nc2ccccc2N)cc1 | 4.0 | i
CN1C(=O)c2cc(NC(=O)c3cc(F)cc(F)c3)ccc2OC[C@@H]2O[C@H](CC(=O)O)CC[C@@H]21 | -0.8 | i
COCC(=O)N(C)C[C@@H]1Oc2cc(C#C[C@@H](C)O)ccc2S(=O)(=O)N([C@H](C)CO)C[C@H]1C | -2.7 | i
O=C(C[C@@H]1C[C@H]2c3cc(NC(=O)Cc4ccncc4)ccc3O[C@H]2[C@@H](CO)O1)NCc1ccccn1 | -0.9 | i
CO[C@@H]1CN(C)C(=O)c2ccc(NC(=O)C3CCCC3)cc2OC[C@H](C)N(C(=O)CC2CC2)C[C@@H]1C | -0.1 | i
Cc1noc(C)c1NC(=O)Nc1ccc2c(c1)CC(=O)N([C@H](C)CO)C[C@@H](C)[C@H](CN(C)C(=O)Nc1ccc3c(c1)OCO3)O2 | 1.6 | i
Cc1noc(C)c1NC(=O)Nc1cccc2c1O[C@H](CN(C)CC1CCCCC1)[C@H](C)CN([C@@H](C)CO)C2=O | -6.0 | i
COc1ccc2c3c([nH]c2c1)[C@@H](CO)N(C(=O)C1CCC1)CC31CCN(Cc2nccs2)CC1 | 4.7 | i
C[C@H]1CN([C@@H](C)CO)C(=O)c2cc(NC(=O)CCCN(C)C)ccc2O[C@@H]1CN(C)C(=O)Nc1ccccc1 | -1.7 | i

Carrying on.
structure | MLL AF4-AF9 inh | FGF22 binding
COc1ccc(NC(=O)Nc2ccc3c(c2)C(=O)N([C@H](C)CO)C[C@@H](C)[C@@H](CN(C)C(=O)NC(C)C)OCCCC[C@H](C)O3)cc1 | 2.9 | i
CC(C)CC#Cc1cnc2c(c1)C(=O)N([C@H](C)CO)C[C@@H](C)[C@H](CN(C)Cc1ccccc1)O2 | 3.4 | i
C[C@@H]1CN([C@@H](C)CO)C(=O)c2cc(NS(=O)(=O)c3ccc(Cl)cc3)ccc2O[C@@H]1CN(C)C(=O)Nc1ccc2c(c1)OCO2 | 6.3 | i
COc1ccc2c3c(n(C)c2c1)[C@H](CO)N(S(=O)(=O)c1ccc(C)cc1)CC31CCN(S(=O)(=O)c2ccc(C)cc2)CC1 | 0.3 | i
CC(=O)N[C@@H]1C=C[C@H](CC(=O)NCc2ccc(Cl)cc2)O[C@@H]1CO | -1.8 | i
CNC[C@@H]1OCCCC[C@H](C)Oc2ccc(NC(=O)Nc3c(C)noc3C)cc2C(=O)N([C@@H](C)CO)C[C@H]1C | -6.1 | i
COC(=O)[C@H]1[C@H](CO)[C@H]2Cn3c(ccc(-c4ccccc4)c3=O)[C@H]2N1Cc1cccc(F)c1 | -0.3 | i
C[C@H]1CN([C@@H](C)CO)C(=O)Cc2cc(NC(=O)Nc3ccccc3)ccc2O[C@@H]1CN(C)S(=O)(=O)c1ccc(F)cc1 | -1.7 | i
CO[C@H]1CN(C)C(=O)c2ccc(NS(=O)(=O)c3cccc(F)c3)cc2OC[C@H](C)N(Cc2cc(F)ccc2F)C[C@@H]1C | 0.9 | i
C[C@H]1CN([C@@H](C)CO)C(=O)Cc2cc(N(C)C)ccc2O[C@H]1CN(C)CC1CC1 | -1.3 | i
C[C@@H]1CN([C@H](C)CO)C(=O)c2cc(NC(=O)Nc3ccc(C(F)(F)F)cc3)ccc2O[C@H]1CN(C)C(=O)Nc1ccccc1 | -0.1 | i
CN(C)CCCNC(=O)C[C@H]1CC[C@H]2[C@H](COc3ccc(NC(=O)C4CCC4)cc3C(=O)N2C)O1 | 1.6 | i
C[C@@H]1CN([C@H](C)CO)C(=O)c2cc(-c3ccncc3)cnc2O[C@H]1CN(C)C | -2.9 | i
C[C@H](CO)N1C[C@H](C)[C@H](CN(C)Cc2ccc3c(c2)OCO3)OCc2cnnn2CCCC1=O | -0.8 | i
C[C@@H]1CN([C@H](C)CO)C(=O)c2cc(NS(=O)(=O)c3ccccc3)ccc2O[C@@H](C)CCCCO[C@@H]1CN(C)Cc1ccncc1 | -0.6 | i

Later entries.
structure | MLL AF4-AF9 inh | FGF22 binding
C[C@@H]1CN([C@@H](C)CO)S(=O)(=O)c2ccc(C#CCN(C)C)cc2O[C@@H]1CN(C)C(=O)C1CCC1 | -0.8 | i
COc1ccc(NC(=O)N(C)C[C@H]2Oc3ccc(NC(=O)Nc4cccc5ccccc45)cc3CC(=O)N([C@@H](C)CO)C[C@H]2C)cc1 | 1.1 | i
CCCNC(=O)N1CC2(C1)[C@H](c1ccccc1)[C@@H](CO)N2Cc1ccccc1 | -2.7 | i
Cc1noc(C)c1NC(=O)N(C)C[C@H]1Oc2c(NC(=O)c3ccc(-c4nccs4)cc3)cccc2C(=O)N([C@H](C)CO)C[C@H]1C | -1.9 | i
COCC(=O)N1CC(=O)N2[C@H](CO)[C@@H](c3ccc(C#CC4CC4)cc3)[C@@H]2C1 | -3.1 | i
O=C(C[C@@H]1CC[C@@H]2[C@H](COC[C@H](O)CN2S(=O)(=O)c2ccc(F)cc2)O1)NCC1CC1 | 1.2 | i
C[C@@H]1CN([C@@H](C)CO)C(=O)c2cc(NC(=O)NC3CCCCC3)ccc2O[C@@H](C)CCCCO[C@H]1CN(C)C(=O)Nc1cccc2ccccc12 | -3.9 | i
Cc1cccc(S(=O)(=O)N2C[C@@H]3[C@H](c4ccccc42)[C@H](CO)N3Cc2cccnc2)c1 | 0.3 | i
C/C=C/c1cnc2c(c1)C(=O)N([C@@H](C)CO)C[C@H](C)[C@@H](CN(C)Cc1cncnc1)O2 | -16 | i
COc1ccc(CN(C)C[C@@H]2Oc3c(NS(=O)(=O)c4ccccc4)cccc3C(=O)N([C@@H](C)CO)C[C@@H]2C)cc1 | 0.0 | i
Cc1noc(C)c1S(=O)(=O)Nc1ccc2c(c1)C(=O)N([C@@H](C)CO)C[C@@H](C)[C@H](CN(C)S(=O)(=O)c1ccc(Cl)cc1)OCCCC[C@@H](C)O2 | -6.0 | i
C[C@H](CO)N1C[C@H](C)[C@@H](CN(C)S(C)(=O)=O)Oc2ncc(-c3cccnc3)cc2C1=O | -0.9 | i
CNC[C@@H]1Oc2c(NC(=O)c3cc(C)nn3C)cccc2C(=O)N([C@@H](C)CO)C[C@@H]1C | -1.8 | i
CC(C)C(=O)Nc1ccc2c(c1)C(=O)N(C)[C@@H]1CC[C@H](CC(=O)NCc3ccc(F)cc3)O[C@H]1CO2 | -1.9 | i
C[C@H](CO)N1C[C@H](C)[C@H](CN(C)C(=O)c2ccccn2)Oc2cc(C#CCC3CCCC3)ccc2S1(=O)=O | 7.2 | i

Remaining list, next part
structure | MLL AF4-AF9 inh | FGF22 binding
C[C@H](CO)N1C[C@H](C)[C@H](CN(C)Cc2ccc(-c3ccccc3)cc2)Oc2c(NC(=O)C3CC3)cccc2C1=O | 3.4 | i
C[C@@H]1CCCCO[C@@H](CN(C)S(=O)(=O)c2cn(C)cn2)[C@H](C)CN([C@H](C)CO)C(=O)c2cc(NC(=O)CCC(F)(F)F)ccc2O1 | -0.2 | i
CC(C)CC#Cc1ccc2c(c1)O[C@@H](CN(C)C(=O)c1ccccc1F)[C@H](C)CN([C@@H](C)CO)S2(=O)=O | 0.7 | i
C[C@H](CO)N1C[C@H](C)[C@H](CN(C)CC2CCCCC2)Oc2ccc(NS(=O)(=O)c3ccccc3)cc2CC1=O | 0.8 | i
C[C@H](CO)N1C[C@H](C)[C@H](CN(C)Cc2ccc3c(c2)OCO3)Oc2ccc(NC(=O)Nc3ccc4c(c3)OCO4)cc2CC1=O | 1.9 | i
CO[C@H]1CN(C)C(=O)c2cc(NC(=O)Nc3ccccc3)ccc2OC[C@@H](C)N(C(=O)Nc2c(C)noc2C)C[C@@H]1C | -0.6 | i
COc1ccc(C#Cc2ccc([C@@H]3[C@H](CO)N4CCCCN(C(=O)Nc5ccccc5)C[C@@H]34)cc2)cc1 | 0.8 | i
C[C@H]1CN([C@@H](C)CO)C(=O)c2cccc(NS(=O)(=O)c3cn(C)cn3)c2O[C@@H]1CN(C)Cc1ccccc1 | -0.9 | i
Cc1noc(C)c1NC(=O)N(C)C[C@@H]1Oc2ccc(NS(=O)(=O)c3cn(C)cn3)cc2C(=O)N([C@H](C)CO)C[C@H]1C | -2.5 | i
COc1ccccc1NC(=O)N1C[C@H](O)COC[C@H]2O[C@H](CC(=O)NCCc3ccncc3)CC[C@@H]21 | -1.9 | i
COc1ccccc1-c1ccccc1[C@H]1[C@@H](C#N)N(C(=O)CN(C)C)[C@@H]1CO | -2.8 | i
CCCNC(=O)N(C)C[C@@H]1Oc2cc(C3=CCCC3)ccc2S(=O)(=O)N([C@@H](C)CO)C[C@H]1C | 0.4 | i
COc1ccc(S(=O)(=O)N(C)C[C@@H]2OCCCC[C@H](C)Oc3ccc(NS(=O)(=O)c4ccc(C)cc4)cc3C(=O)N([C@@H](C)CO)C[C@@H]2C)cc1 | -0.8 | i
CO[C@H]1CN(C)C(=O)c2cc(NC(=O)Nc3c(C)noc3C)ccc2OC[C@H](C)NC[C@H]1C | -1.7 | i
C[C@@H]1CN([C@@H](C)CO)C(=O)c2cccc(NC(=O)Nc3ccc(F)cc3)c2O[C@H]1CN(C)Cc1ccc(C(=O)O)cc1 | -0.4 | i

Going on with the list.
structure | MLL AF4-AF9 inh | FGF22 binding
CC(C)NC(=O)N(C)C[C@@H]1Oc2ncc(-c3cncnc3)cc2C(=O)N([C@@H](C)CO)C[C@@H]1C | -2.8 | i
COCC(=O)N1CC2(C1)CN(Cc1ccc3c(c1)OCO3)[C@H](CO)c1c2c2ccc(OC)cc2n1C | -3.8 | i
COc1cccc(S(=O)(=O)N[C@@H]2CC[C@@H](CC(=O)NCc3ccccc3)O[C@@H]2CO)c1 | -3.6 | i
C[C@@H]1CCCCO[C@H](CN(C)C(=O)Nc2cccc3ccccc23)[C@@H](C)CN([C@@H](C)CO)C(=O)c2cc(NC(=O)Nc3ccc(F)cc3)ccc2O1 | 1.2 | i
Cc1noc(C)c1S(=O)(=O)Nc1ccc2c(c1)CC(=O)N([C@@H](C)CO)C[C@H](C)[C@@H](CN(C)Cc1ccc(C(=O)O)cc1)O2 | -4.8 | i
COc1ccc(CNC(=O)C[C@@H]2CC[C@@H](NC(=O)c3cccc(F)c3)[C@@H](CO)O2)cc1 | -2.0 | i
COc1cccc(CNC(=O)C[C@H]2C=C[C@H](NS(=O)(=O)c3ccccc3OC)[C@@H](CO)O2)c1 | 0.4 | i
N#C[C@H]1[C@@H](c2ccccc2C2=CCCC2)[C@H](CO)N1C(=O)C1CCCC1 | -0.1 | i
C[C@H](O)C#Cc1cnc2c(c1)C(=O)N([C@H](C)CO)C[C@H](C)[C@@H](CN(C)CC1CCOCC1)O2 | -2.3 | i
COc1cccc(C#Cc2ccc([C@@H]3[C@@H](C#N)N(C(=O)c4ccccn4)[C@H]3CO)cc2)c1 | 0.8 | i
O=C(Nc1ccc(F)cc1)N[C@@H]1CC[C@@H](CCn2cc(C3(O)CCCC3)nn2)O[C@@H]1CO | -0.7 | i
C[C@@H]1CCCCO[C@H](CN(C)Cc2ccc(Cl)c(Cl)c2)[C@H](C)CN([C@@H](C)CO)C(=O)c2cc(NC(=O)c3ccccc3)ccc2O1 | 0.8 | i
CCN(CC)CCNC(=O)c1ccc(NCN2C(=O)NC(c3ccccc3)(c3ccccc3)C2=O)cc1 | -1.7 | i
C[C@@H]1CN([C@@H](C)CO)S(=O)(=O)c2ccc(C#Cc3ccccc3F)cc2O[C@@H]1CN(C)C | 7.6 | i
Cc1noc(C)c1S(=O)(=O)N(C)C[C@@H]1Oc2ccc(NC(=O)Nc3ccc4c(c3)OCO4)cc2CC(=O)N([C@H](C)CO)C[C@H]1C | 6.5 | i

Screens as filed in PubChem.

The list is partial. The share of hits here may be higher or lower than overall.
